Bioassay records (PubChem)
NS1 inh: inhibitors of influenza NS1 protein function; S. cerevisiae slowed by influenza A NS1, growth recovery by OD600; Potency, µM (highest dose often 46.1 µM), inactives show top-dose activity, positive = more growth; 0.4% of 270,000 active; active means well fitted rising curve with a large enough effect; inconclusive means small, poorly fitted or top-dose-only effect; inactive means no such curve, though single readings can be large or run the other way; further: nearly all actives have a fitted effect of over 50% in size
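Growth recovery, yeast-based: influenza A NS1 expressed in S. cerevisiae causes slow growth, and suppressors are detected by OD600. The parent strain without NS1 is used as positive control.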
RE007 growth inh: less growth of the S. pombe RE007 Vpr strain; 0.21% of 360,000 active; S. pombe RE007 Vpr strain, BacTiter-Glo ATP luminescence, 24 h; control for the full effect not named in the record; Potency, µM (titrated, usually from 92.2 µM), without a hit: at the top dose activity change, negative = less growth; AID 651644; active = well fitted falling curve with a large enough effect; inconclusive = small, poorly fitted or top-dose-only effect; inactive = no such curve, though single readings can be large or run the other way;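 further: on the % scale 0 is the no-effect control and ±100 the full control effect; nearly all actives have a fitted effect of over 50% in size; the assay follows cell death caused by Vpr and the record does not say whether a fall means rescue or toxicity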
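Fission yeast RE007 carrying one integrated HIV-1 vpr copy, seeded at OD 0.01 in PMG+AL medium with 23 nL pinned compound. Grown 24 h at 30 degrees; viability read by BacTiter-Glo luminescence after 5 min.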
SARS PLP yeast: blocks SARS-CoV papain-like protease in a yeast assay. S. cerevisiae expressing SARS-CoV PLpro, growth rescue; control for the full effect not named in the record. Potency, µM (highest dose often 32.9 µM), for the others: top-dose activity, positive = growth rescue. 0.19% of 330,000 active. AID 485353; active means well fitted rising curve with a large enough effect; inconclusive means small, poorly fitted or top-dose-only effect; inactive means no such curve, though single readings can be large or run the other way; further: 0% is about no effect; nearly all actives have a fitted effect of over 55% in size; growth read by luminescence after 48 h
Cruzain Triton: inhibitors of Trypanosoma cruzi cruzain with detergent; purified cruzain, Z-FR-AMC fluorescence, 0.01% Triton; Potency, µM, for the others: max response, negative = inhibition, actives largely listed as inhibitors; 0.43% of 200,000 active; AID 1478;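 further: plate controls were neutral wells for no effect and buffer without enzyme for full effect; nearly all actives have a fitted effect of over 40% in size; top concentration of the series not given in the record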
Target sequence (P25779 123-467 limits assumed): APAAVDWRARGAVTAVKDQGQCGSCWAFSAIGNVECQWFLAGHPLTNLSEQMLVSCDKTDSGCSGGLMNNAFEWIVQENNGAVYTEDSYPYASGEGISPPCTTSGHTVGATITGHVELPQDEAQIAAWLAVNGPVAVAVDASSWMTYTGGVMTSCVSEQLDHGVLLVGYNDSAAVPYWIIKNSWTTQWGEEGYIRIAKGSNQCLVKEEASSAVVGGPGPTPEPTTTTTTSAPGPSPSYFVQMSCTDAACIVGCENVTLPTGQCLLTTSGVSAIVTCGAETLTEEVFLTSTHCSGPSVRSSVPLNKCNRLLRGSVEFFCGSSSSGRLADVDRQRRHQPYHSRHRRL
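Detergent-containing arm of a paired screen for aggregation-based inhibition: 0.01% Triton X-100 present. Cruzain at 1.5 nM cleaved 2 uM Z-FR-AMC at pH 5.5 with 5 mM DTT; AMC fluorescence gain over 60 s measured activity.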
StopGo reporter: FMDV 2A StopGo reporter, luciferase signal; AID 1159524; human cells with a luciferase reporter of 2A StopGo recoding; control for the full effect not named in the record; 1.2% of 410,000 active; Potency, µM (highest dose often 57.9 µM), for the others: top-dose signal change, negative = less light; active = well fitted falling curve with a large enough effect; inconclusive = small, poorly fitted or top-dose-only effect; inactive = no such curve, though single readings can be large or run the other way; tested in HEK293T cells; further: on the % scale 0 is the no-effect control and ±100 the full control effect; nearly all actives have a fitted effect of over 45% in size; luciferase light after 4 h
LASV entry inh: blocks Lassa virus binding to or entry into cells; Lassa virus pseudotype entry inhibition, cell reporter; control for the full effect not named in the record; Potency, µM (highest dose often 37.9 µM), for the others: at the highest dose activity change, negative = inhibition, actives largely listed as inhibitors; 1.2% of 300,000 active; active means well fitted inhibition curve with a large enough effect; inconclusive means small, poorly fitted or top-dose-only effect, or effect the other way; inactive means flat fitted curve, though single readings scatter; tested in HEK293 cells; further: on the % scale 0 is the no-effect control and ±100 the full control effect; nearly all actives have a fitted effect of over 50% in size; luciferase read-out
Cruzain inh noDet: inhibitors of Trypanosoma cruzi cruzain without detergent. purified cruzain, Z-FR-AMC fluorescence, no detergent. Potency, µM, without a hit: max response, negative = inhibition, most hits filed as inhibitors. 2.3% of 200,000 active. AID 1476;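 further: plate controls were enzyme without inhibitor for no effect and buffer without enzyme for full effect; nearly all actives have a fitted effect of over 40% in size; top concentration of the series not given in the record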
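Detergent-free condition (0.00005% Triton X-100) in acetate buffer pH 5.5 with DTT. 1.5 nM enzyme and compound were pre-mixed 15 min, then 2 uM Z-FR-AMC substrate added; reaction progress from fluorescence change between first and third reads (60 s).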
Marburg entry inh: Marburg virus entry inhibition | Marburg virus pseudotyped entry inhibition, cell reporter; control for the full effect not named in the record; about a third of the inactives were read at about 46 µM | Potency, µM (highest dose often 37.8 µM), without a hit: top-dose activity change, negative = inhibition, hits mostly inhibitors | 1.8% of 300,000 active; active = well fitted inhibition curve with a large enough effect; inconclusive = small, poorly fitted or top-dose-only effect, or effect the other way; inactive = flat fitted curve, though single readings scatter; tested in HEK293 cells; about a fifth of its hits are not listed in these tables; further: on the % scale 0 is the no-effect control and ±100 the full control effect; luciferase read-out
* marks the source's active call; other numbers are inactive results; ? = inconclusive; nt = not tested or not shown; & = joins results of further samples; [ ] = remark or other dose. Unless noted, the call rests on the fitted dose curve; in most records, active means well fitted curve in the direction sought with a large enough effect; inconclusive means small, poorly fitted or top-dose-only effect, or another doubt; inactive means no such curve, though single readings can be large; an effect the other way counts as inactive or inconclusive. Potency means the concentration at half of the fitted maximal effect.

mol,NS1 inh,RE007 growth inh,SARS PLP yeast,Cruzain Triton,StopGo reporter,LASV entry inh,Cruzain inh noDet,Marburg entry inh
O=C(Cn1c(=O)n(-c2ccccc2Cl)c(=O)c2sc3ccccc3c21)N1CCCC1,nt,nt,nt,-0.2%,-10%,3%[46.1 µM],2%,-5%[46.1 µM]
Cc1cccc(N2CCN(C(c3ccc(N(C)C)cc3)c3nnnn3C(C)(C)C)CC2)c1C (stereo unspecified),-2%,-7%,16%,-3.4%,?,?,8%,-4%[46.1 µM]
O=C(C1=NN[C@@H]2C(=O)N(c3ccccc3C(F)(F)F)C(=O)[C@H]12)c1cnccn1,2%,17%,-7%,nt,-17%,nt,nt,nt
CCOC(=O)c1sc2nc(SCC(=O)NCc3ccco3)n(Cc3ccccc3)c(=O)c2c1C,7%,-1%,9%,1.7%,0%,0%,7.9µM*,?
CCOc1ccc2nc(SCC(=O)NC(=O)NCc3ccco3)sc2c1,-3%,4%,-8%,-3.7%,-1%,?,-1%,-23%
CCCC(=O)Nc1ccc(NC(=O)C23CC4CC(CC(C4)C2)C3)cn1,-1%,15%,0%,2.1%,9%,-2%,4%,?
CN(C)N1C(=O)CC(NNC(=O)c2ccncc2)C1=O (stereo unspecified),3%,-3%,20%,-3.2%,-3%,10%,1%,-21%
O=C(CC1SC(=O)N(c2ccccc2)C1=O)Nc1ccccc1 (stereo unspecified),-91%,?,-17%,-6.8%,32%[activator],1%,-1%,14%
Cn1c(-c2cccc(OCc3ccccc3)c2)nc2c1c(=O)[nH]c(=O)n2Cc1ccccc1,0%,-27%,2%,-0.8%,35µM*,?,7.9µM*,-8%
COC(=O)c1sc2cc(C(F)(F)F)cnc2c1-c1cccnc1,2%,9%,-2%,-1.2%,10%,5%,-4%,?
COc1cc2cc(Br)cc(Br)c2nc1C,?,-27%,17%,-1.9%,-14%,0%,0%,-1%
CCOc1cc(CNCCc2cccc(F)c2)ccc1OC,1%,-2%,-4%,nt,-19%,0%,nt,-14%[46.1 µM]
O=C(O)CC(SCC(=O)Nc1ccccc1)C(=O)O (stereo unspecified),nt,23%,0%,nt,7%,-28%[46.1 µM],nt,8%[46.1 µM]
CCn1c(NC(=O)C(C)C)c(-c2cccs2)c(=O)c2ccccc21,-1%,7%,0%,nt,-9%,11%,nt,8%
O=C(COC(=O)/C=C/c1cccc([N+](=O)[O-])c1)NCC1CCCO1 (stereo unspecified),nt,-7%,-5%,nt,9%,-3%,nt,-1%[46.1 µM]
C/C=C(/C)C(=O)Nc1cccc(C2=NOC3(C2)C[C@@H](C(N)=O)N(C(=O)C2(C)CC2)C3)c1 (stereo partly specified),1%,-10%,-2%,nt,-18%,nt,nt,nt
CC(=O)c1c(O)c2cccc3c2n(c1=O)CCC3,-53%,-21%,-1%,nt,-16%,nt,nt,nt
CCOc1ccc(NC(=O)c2oc3ccccc3c2NC(=O)C2CCCCC2)cc1,nt,nt,nt,0.1%,-7%,17%[46.1 µM],-2%,-13%[46.1 µM]
COc1ccc(N2CCN(C(=O)CCNS(=O)(=O)c3cc(Br)cnc3N)CC2)cc1,8%,21%,3%,nt,-7%,nt,nt,nt
CCCNS(=O)(=O)c1cc(-c2nnc3c4ccccc4c(C)nn23)ccc1OC,nt,nt,nt,-1.1%,26%,-1%[46.1 µM],2%,-10%[46.1 µM]
O=C(O)c1ccccc1-c1ccccc1C(=O)Nc1ccc(OC(F)(F)F)cc1,?,11%,0%,nt,-15%,nt,nt,nt
Cc1c(C(=O)NCc2cccnc2)oc2ccc(S(=O)(=O)N3CC(C)CC(C)C3)cc12 (stereo unspecified),-2%,-5%,18%,2.9%,1%,nt,25%,6%
Cc1ccc(Nc2nc3nonc3nc2N(C)C)cc1,2%,10%,5%,-6.9%,-10%,15%,-12%,10%[46.1 µM]
C#CCn1c(CCNC(=O)c2ccco2)nc2ccccc21,1%,-5%,19%,nt,-18%,nt,nt,nt
CNC(=S)Nc1cccc(C(=O)O)c1,7%,2%,0%,nt,-3%,6%,nt,2%
Cc1[nH]c2ccc(F)cc2c1CCN(Cc1cccnc1)C(=S)NC(C)(C)C,2%,-13%,-2%,nt,-7%,6%[46.1 µM],nt,?
O=C(CNC(=O)c1ccc(Br)cc1)NCC(=O)OCC(=O)c1ccc(F)cc1,14%,9%,1%,nt,0%,nt,nt,nt
C/C(=N\NC(=O)COc1ccccc1-c1ccccc1)c1ccccn1,nt,-24%,-3%,nt,?,5.6µM*,nt,4µM*
NC(=O)c1c(NC(=O)c2ccc(F)cc2)sc2c1CCC2,-8%,-13%,11%,nt,24%,-8%[46.1 µM],nt,?
Cc1cccc(Cn2c(CNS(=O)(=O)c3ccc(C(C)C)cc3)nc3cccnc32)c1,nt,nt,nt,-2.6%,35%[activator],-4%[46.1 µM],0%,nt
COC(=O)c1ccc(NC(=O)C(C)Sc2nc(=O)cc(N)n2CCc2ccccc2)cc1 (stereo unspecified),nt,nt,nt,-13%,4%,7%[46.1 µM],11%,?
CCCCC(=O)Nc1cc(Cl)ccc1C(=O)O,1%,-11%,-1%,nt,1%,nt,nt,nt
O=C(Nc1c(F)cc(F)cc1Br)c1cc(-c2ccccc2)on1,9%,-12%,0%,nt,31%[activator],nt,nt,nt
Cc1nc(C)n(C(Oc2ccc(Cl)cc2Cl)C(=O)C(C)(C)C)n1 (stereo unspecified),nt,-8%,nt,nt,-17%,9%,nt,-25%[46.1 µM]
COc1ccc(N2CCN(C(=O)C3CCN(S(=O)(=O)c4ccc5c(c4)oc(=O)n5C)CC3)CC2)cc1,-3%,-4%,-4%,nt,?,nt,nt,nt
CCn1c(COc2ccccc2)nnc1SCC(=O)NCc1ccco1,-5%,6%,-1%,nt,8%,12%,nt,-2%
COc1ccccc1NC(=O)COC(=O)CC(C)(C)CC1=NS(=O)(=O)c2ccccc2N1,-18%,4%,-6%,2.2%,-11%&-16%,?,23%,?
CC(C)(C)OC(=O)[C@H](Cc1ccccc1)NC(=O)c1nc[nH]c1C(=O)N1CCc2ccccc2C1,-5%,-2%,-1%,nt,-6%,nt,nt,nt
CCCCn1c(N)c(N(CC)C(=O)CSCc2c(C)noc2C)c(=O)[nH]c1=O,10%,-12%,-1%,nt,-16%,-3%,nt,8%
O=C1CC(C(=O)Nc2ccc(Br)cc2)C2(CCCC2)O1 (stereo unspecified),-3%,nt,2%,5.8%,nt,nt,-8%,2%
COc1ccc(SCCc2nnc(-c3ccccc3)o2)cc1,-43%,1%,-3%,nt,-1%,nt,nt,nt
O=C(CO/N=C/c1cccc([N+](=O)[O-])c1)NC1CCCCC1,-4%,13%,-19%,2.9%,10%,-10%,5%,1%
COc1ccc(C2C(=O)N(C3CCC(C)CC3)CC(=O)N2C2CCCCC2)cc1OC (stereo unspecified),nt,nt,nt,0.8%,-21%,-1%[46.1 µM],2%,nt
Cc1ccc(C(=O)N2Cc3ccccc3CC2C(=O)O)cc1 (stereo unspecified),-2%,1%,1%,6.4%,nt,4%,6%,4%
CCC(NC(=S)NCc1ccc(F)cc1)c1ccc(C(C)C)cc1 (stereo unspecified),13%,9%,1%,nt,-21%,nt,nt,nt
COC(=O)C1=C(C)NC(C)=C(C(=O)OC)C1C1CC=CCC1 (stereo unspecified),2%,4%,-6%,-6.6%,-20%,-12%,-5%,?
COc1cccc(C=NNC(=O)C2CC2)c1,nt,-6%,nt,nt,4%,13%[46.1 µM],nt,?
COc1ccc(-c2ccc([C@H]3[C@@H]4C=CCC[C@@]4(C)C(=O)N3Cc3ccccc3)c(F)c2)cc1,-6%,19%,-4%,nt,?,nt,nt,nt
CC1CCCCC1NC(=O)CO/N=C/c1ccccc1OC(F)F (stereo unspecified),-11%,-9%,21%,-1.4%,-10%,-4%,-5%,?
O=C(O)CCCC(=O)Nc1ccccc1C(=O)N1CCOCC1,nt,34%,1%,nt,-16%,6%,nt,?
CCN(CC)CC(=O)Nc1c2c(nc3ccccc13)N(C)CC2,0%,2%,-2%,nt,-16%,12%,nt,?
Cc1ccc(NC(=O)CN2C(=O)CN(C)C2=O)cc1S(=O)(=O)N1CCCCC1,nt,-2%,5%,nt,-17%,3%,nt,23%[46.1 µM]
COc1cccc(C(=O)OCC(=O)NC(=O)NC2CCCC2)c1O,nt,2%,0%,nt,-6%,9%,nt,9%[46.1 µM]
CC(=O)Cn1c(C(F)(F)F)nc2ccccc21,-13%,-15%,-17%,2.5%,12%,-14%,-2%,15%
N#CC1=C(N)C2=C(N3CCCCC3)CCCC2C1(C#N)C#N (stereo unspecified),-2%,4%,2%,-5.8%,12%,-4%,-2%,26%[46.1 µM]
CC12CCC(=O)C=C1CCC1C2CCC2(C)C(C(=O)CO)CC(O)C12 (stereo unspecified),nt,1%,nt,nt,-17%,20%,nt,5%
COC(=O)c1sccc1NC(=O)c1cc(OC)cc(OC)c1,5%,-28%,7%,-5.5%,-29%,-3%,5%,0%
O=C(O)c1ccc(CSc2nnc(-c3ccc(Cl)cc3)o2)cc1,-15%,2%,-2%,nt,0%,15%,nt,2%
CNc1nc(Cl)nc2c1ncn2-c1ccccc1,nt,-12%,nt,nt,36%[activator],2%,nt,-14%
N#CC1(Nc2ccc3ccccc3c2)CCCC1,nt,-5%,nt,nt,3%,15%[46.1 µM],nt,8%[46.1 µM]
CN1/C(=C/C(=O)C2CCC2)Sc2ccccc21,-70%,-8%,-19%,-4.0%,nt,0%,0%,-10%
Cc1ccccc1CC(=O)NCC1CCCCC1,13%,19%,-2%,nt,-1%,4%[46.1 µM],nt,0%[46.1 µM]
